MARV entry inh – Marburg virus entry inhibition; hit rate 6.5% among 18,000; AID 720532; Marburg virus pseudotype entry/binding inhibition, cell-based; control for the full effect not named in the record; many of its hits are not listed in these tables; Potency, µM (doses to about 49.2 µM), for inactives: at the top dose activity change, negative = inhibition, most hits filed as inhibitors; active means well fitted inhibition curve with a large enough effect; inconclusive means small, poorly fitted or top-dose-only effect; inactive means no such curve, though single readings can be large or run the other way; tested in HEK293 cells; also: luciferase read-out
LASV entry inh – inhibitors of Lassa virus binding or entry into cells; Lassa virus pseudotyped entry inhibition, cell-based qHTS; control for the full effect not named in the record; many of its hits are not listed in these tables; Potency, µM (highest dose often 49.2 µM), for the others: at the top dose activity change, negative = inhibition, usual class: inhibitors; hit rate 4.1% among 18,000; AID 720533; active = well fitted inhibition curve with a large enough effect; inconclusive = small, poorly fitted or top-dose-only effect; inactive = no such curve, though single readings can be large or run the other way; tested in HEK293 cells; also: luciferase read-out
Active calls of the source: *; ? = inconclusive; · = not tested or not shown; & = joins results of further samples; ! = not active in a repeat; [ ] = another dose, or the depositor's remark. % is scaled to controls: 0 for no effect and ±100 for the full control effect; potency is read from the fitted curve at half-maximal effect.

No.	structure	LASV entry inh	MARV entry inh
1	C=C(C)C1CCC(C)=CC1c1c(O)cc(O)cc1CCCCC (stereo not given)	-5%	24%
2	CC1CCC2C(C)(C)C3CC12CC[C@]3(C)O (stereo not given in full)	0%	1%
3	c1ccc(CCCN2CCN(CCOC(c3ccccc3)c3ccccc3)CC2)cc1	28µM*	11µM*
4	COc1ccccc1CN1CCCC(n2cc(C(=O)N3CCCC3)nn2)C1 (stereo not given)	2%	4%
5	CC(=O)CCC(=O)N1CCC(n2c(C3CCCO3)nc3cc(C(F)(F)F)ccc32)CC1 (stereo not given)	0%	1%
6	CN1CCC(=C2c3ccccc3CCc3cccnc32)CC1	-5%	-25%
7	CN1CCC(C(=O)Nc2n[nH]c3nnc(-c4ccccc4)cc23)CC1	16%	?
8	Cn1ccc2c(-c3cncc4ccccc34)cc3c(c21)C1CCC3C1 (stereo not given)	-12%	-24%
9	O=c1[nH]ccc2c(S(=O)(=O)N3CCCNCC3)cccc12	-2%&7%	-18%&21%
10	CCn1c(-c2nonc2N)nc2c(C#CC(C)(C)O)ncc(OCC3CCNCC3)c21	·	1.8µM*

Further entries follow.
No.	structure	LASV entry inh	MARV entry inh
11	N#Cc1ccc(CS(=O)(=O)c2nnnn2C2CCCCC2)cc1	-10%	35%[activator]
12	CN1[C@H]2CC[C@@H]1[C@@H](C(=O)O)[C@@H](OC(=O)c1ccccc1)C2	-22%[107 µM]	-3%[107 µM]
13	COc1cccc(-c2oc3ccccc3c(=O)c2O)c1	-1%	10%
14	CC(C)(C)OC(=O)N1CCC[C@@H]1C(O)(c1ccccc1)c1ccccc1	0%[8.59 µM]	-13%[8.59 µM]
15	CC1/C=C/C=C/CC/C=C/C=C/C=C/C=C/C(OC2OC(C)C(O)C(N)C2O)CC2O[C@](O)(CC(O)C(O)CCC(O)CC(O)CC(O)CC(=O)OC(C)C(C)C1O)CC(O)C2C(=O)O (stereo not given in full)	2%	1%
16	COc1ccc2c(c1)OC(=O)CC2c1ccccc1C (stereo not given)	-20%	-1%
17	COc1ccc(OC)c(C(=O)N2CCOc3ccc(C(C)(O)CN(C)C)cc3C2)c1 (stereo not given)	25%	-6%
18	O=C(NCC1CCC2(CCN(Cc3cc4ccccc4o3)CC2)O1)c1ccccc1 (stereo not given)	2%	14%
19	Cc1ccc(O[C@@H]2[C@H](O)CO[C@H]2C=CC#Cc2ccc(C(C)(C)C)cc2)cc1	·	-35%[8.59 µM]
20	CN1CCc2cc(Cl)c(O)cc2[C@H]2c3ccccc3CC[C@@H]21	?	?

More results.
No.	structure	LASV entry inh	MARV entry inh
21	Cc1c2ccc(N(C)c3ccnc(Nc4cccc(S(N)(=O)=O)c4)n3)cc2nn1C	-1%	?
22	COc1cc(C(=O)O[C@H]2C/C(C)=C/CC/C(C)=C/[C@@H](O)C2C(C)C)ccc1O (stereo not given in full)	?	?
23	C[C@]12CC[C@H]3[C@@H](CCC4=C(O)C(=O)CC[C@@H]43)[C@@H]1CC[C@@H]2OC(=O)CCC1CCCC1	-26%	24%
24	C[C@@H](NCc1cc(Br)cc2[nH]c(=O)c(=O)[nH]c12)P(=O)(O)O	-1%	-6%
25	COc1cc2[nH]c(-c3ccc(C)cc3)cc(=O)c2cc1OC	-22%	46%[activator]
26	O=C1[C@H]2[C@@H]3[C@@H](O)[C@H](O)CC(=NOCc4ccccc4)[C@@H]3CC[C@H]2C(=O)N1c1ccc(F)cc1F	3%[8.59 µM]	-9%[8.59 µM]
27	COc1ccc(CN2CCOc3c(cc(-c4cccc(OC)n4)cc3OC)C2)c(O)c1	-23%	4%
28	CCCCN1CC(COc2ccc(OC)cc2)OCCS1(=O)=O (stereo not given)	-17%	-7%
29	CNCc1ccccc1	7%&-3%	3%&3%
30	C#CCN1C=CC(=O)[C@@H](OC(=O)Nc2ccc(OC)cc2)[C@H]1c1ccccc1Br	-5%	20%

Further entries follow:
No.	structure	LASV entry inh	MARV entry inh
31	Cc1nc(C)c(CC(=O)N2CCOc3ccc(CN4CCN(c5ccccn5)CC4)cc3C2)s1	24%	?
32	COc1cc(OC)c2c(-c3cccc(-c4ccc(O)cc4)c3)cc(=O)oc2c1	?	?
33	Cc1ccc2c(CN3CCN(c4ccccc4)CC3)cc(=O)oc2c1	·	?
34	O=C(O)Cc1cnc[nH]1	-10%&-16%	10%&3%
35	COc1ccc(NC(=O)N2CCc3nc(-c4ccccc4)c4c(c3C2)CO[C@@H](C)C4)cc1	11%[8.59 µM]	6%[8.59 µM]
36	CCCC(=O)O[C@]1(C(=O)CO)CC[C@H]2[C@@H]3CCC4=CC(=O)CC[C@]4(C)[C@H]3[C@@H](O)C[C@@]21C	-2%	-5%
37	CC1OC(OCC2OC(Oc3c(-c4ccc(O)c(O)c4)oc4cc(O)cc(O)c4c3=O)C(O)C(O)C2O)C(O)C(O)C1O (stereo not given)	3%	11%
38	O=C(NCCN1CCOCC1)c1cnn(-c2ncc3c(n2)-c2ccccc2CC3)c1C1CC1	-15%	?
39	O=[N+]([O-])c1cccc2c[nH]nc12	3%	2%
40	CC(=O)OCC(=O)NCCCOc1cccc(CN2CCCCC2)c1	-7%&-12%	-5%&-15%

Remaining list, next part:
No.	structure	LASV entry inh	MARV entry inh
41	COC(=O)C1=C(C(=O)OC)[C@@H]2N(C)c3ccccc3[C@@]23C[C@@H](C(=O)OC)N(C(=O)c2cc(C)oc2C)C3=N1	4%[8.59 µM]	-2%[8.59 µM]
42	Cc1cccc(C#Cc2ccccc2)n1	-1%&23%	-9%&90%
43	CC[C@@H]1C(c2cccc(C)c2)=NN(c2ccccc2)[C@H]1C(=O)N1CCOC1=O	?	-8%
44	Cc1[nH]c(/C=C2/C(=O)Nc3ccc(S(=O)(=O)Cc4c(Cl)cccc4Cl)cc32)c(C)c1C(=O)N1CCCC1CN1CCCC1 (stereo not given)	-4%	14µM*
45	COc1cc2c(cc1Nc1nc(Nc3cccc(F)c3C(N)=O)c3cc[nH]c3n1)N(C(=O)CN1CCN(C(C)C)CC1)CC2	·	?
46	CCN(CC)CCCN1C=C2C(=O)C(C)(OC(=O)C3CCCC3)C(=O)C=C2C=C1c1ccsc1 (stereo not given)	-8%[8.59 µM]	?
47	CNC1(c2ccccc2Cl)CCCCC1=O (stereo not given)	5%&-3%	20%&8%
48	COc1ccc(-c2nc3c(c4c2C[C@H](c2ccccc2)OC4)CN(S(=O)(=O)c2ccc(Cl)c4nonc24)CC3)c(C)c1	·	?
49	Clc1ccc(C(c2ccccc2Cl)C(Cl)Cl)cc1 (stereo not given)	?	-14%&-16%
50	O=C1Nc2cccc(Br)c2[C@@]12O[C@H](COc1ccccc1)CC1=CCC[C@H]12	-21%[8.59 µM]	22%[8.59 µM]

Profiles, looked up by structure.
`Cc1[nH]c(/C=C2/C(=O)Nc3ccc(S(=O)(=O)Cc4c(Cl)cccc4Cl)cc32)c(C)c1C(=O)N1CCCC1CN1CCCC1` (stereo not given) across the screens: LASV entry inh = -4%; MARV entry inh = 14µM*
`Clc1ccc(C(c2ccccc2Cl)C(Cl)Cl)cc1` (stereo not given) across the screens: LASV entry inh = ?; MARV entry inh = -14%&-16%
`CNC1(c2ccccc2Cl)CCCCC1=O` (stereo not given) across the screens: LASV entry inh = 5%&-3%; MARV entry inh = 20%&8%

Other records
No.	structure	LASV entry inh	MARV entry inh
51	CCN(CC)C(=O)[C@@H]1C=C2c3cccc4[nH]cc(c34)C[C@H]2N(C)C1	-20%	?
52	COc1ccc2c(c1)-c1ccccc1S(=O)(=O)N(C)C2	5%	34%
53	C=C1C2c3ccccc3C(CC2(C)O[Si](C)(C)C)N1C(=O)OC (stereo not given)	7%[8.59 µM]	22%[8.59 µM]
54	CC(C)C[C@H](NC(=O)[C@H](Cc1ccccc1)NC(=O)CNC(=O)[C@H](CO)NC(=O)[C@@H](N)Cc1ccc(O)cc1)C(=O)N[C@H](C(=O)O)[C@H](C)O	-4%	-7%
55	COc1cccc([C@@H]2Oc3ccc(Br)cc3[C@H](O)[C@H]2O)c1	-4%	1%
56	CCCCCCCCNS(=O)(=O)CCNCc1ccco1	38%[activator]	16%
57	CCC1CN(CCNC(=O)c2cn3cc(C)ccc3n2)Cc2cc(OC)ccc2O1 (stereo not given)	?	?
58	COCCNC(=O)c1cn(C2CCN(C3CCCC3)CC2)nn1	-14%	-9%
59	Cc1cc(=O)oc2cc(O)c(O)cc12	2%	18%
60	Cc1ncc(C[n+]2csc(CCOP(=O)(O)OP(=O)(O)O)c2C)c(N)n1	-3%&-11%	0%&-3%

(next part)
No.	structure	LASV entry inh	MARV entry inh
61	CC(C)(C)OC(=O)N1CCC(C(=O)Nc2cccc(C(=O)N3CCOCC3)c2)CC1	45%[activator]	51%[activator]
62	C[C@H](NC(CCc1ccccc1)C(=O)O)C(=O)N1CCC[C@H]1C(=O)O (stereo not given in full)	-13%	2%
63	COc1ccc(-c2nc(-c3ccccc3)oc2NC2CCCCC2)cc1	12%[8.59 µM]	31%[activator][8.59 µM]
64	CN1CCc2cc3c(cc2[C@@H]1[C@@H]1OC(=O)c2c1ccc1c2OCO1)OCO3	-5%[17.8 µM]	12%[17.8 µM]
65	CC(C)C1C(=O)N(Cc2cn(CCC3OCCCO3)nn2)CCS(=O)(=O)N1Cc1ccc(-c2cccc(CO)c2)cc1 (stereo not given)	-30%	17%
66	CO/N=C(\C(=O)N[C@@H]1C(=O)N2C(C(=O)O)=C(CSC(=O)c3ccco3)CS[C@H]12)c1csc(N)n1	-9%	13%
67	CCCCCCCCCCCC[n+]1ccc2ccccc2c1	8.9µM*	11µM*
68	O=C1OCCN1C(=O)[C@H]1[C@H](c2ccc(Cl)cc2)C(c2ccc(F)cc2)=NN1c1ccccc1	-21%	-14%
69	CCCCc1oc2ccc(NS(C)(=O)=O)cc2c1C(=O)c1ccc(OCCCN(CCCC)CCCC)cc1	13µM*	6.3µM*
70	C[C@]12CC[C@H]3[C@@H](CC[C@@]45O[C@@H]4C(O)=C(C#N)C[C@]35C)[C@@H]1CC[C@@H]2O	-8%	-11%

The list continues:
No.	structure	LASV entry inh	MARV entry inh
71	CCCCOC(=O)C(=O)Nc1cccc(-c2nn[nH]n2)c1	-17%	1%
72	COC(=O)CC=C[C@H](C)[C@@H](NC(=O)C(F)(F)F)c1ccccc1Br	-1%[8.59 µM]	-21%[8.59 µM]
73	COc1cc2c(c(OC)c1OC)CC(c1ccccc1)=C(c1ccccc1)CC2NC(=O)C(F)(F)F (stereo not given)	·	38%[8.59 µM]
74	Cc1oc(-c2ccccc2NC(=O)c2cccnc2)nc1CNC(=O)c1ccc(N(C)C)cc1	-13%	-8%
75	Cc1ccccc1-c1cncnc1N(C)Cc1ccco1	-23%	8%
76	C/C(=C\C[Si](C)(C)C)CCC=O	-18%	-17%
77	CCCCC/C=C/C=C1/C(=O)C=C[C@@H]1C/C=C\CCCC(=O)O	16µM*!	?
78	Cc1n[nH]c(=O)[nH]c1=O	-1%[17.8 µM]	-9%[17.8 µM]
79	CCCN1CCC[C@@H]2Cc3nc(N)ncc3C[C@H]21	1%	26%
80	C=CCCCCCCCCCCCC(O)CC(O)COC(C)=O (stereo not given)	11%	15%

Other structures follow:
No.	structure	LASV entry inh	MARV entry inh
81	O=C(Nc1cccc(F)c1)c1ccc(-c2ccccc2C(F)(F)F)o1	6%	22%
82	COC(=O)c1ccc(CN2CCC3(CCC(CNC(=O)c4ccccc4)O3)CC2)cc1 (stereo not given)	-9%	7%
83	CC(=O)N=c1sc(S(N)(=O)=O)nn1C	4%[17.8 µM]	11%[17.8 µM]
84	CC(C)CCCC(C)C1CCC2C3CC(=O)[C@H]4CC(O)CC[C@]4(C)C3CC[C@@]12C (stereo not given in full)	-4%	0%
85	COC(=O)[C@@H]1OC(c2ccccc2)O[C@H]1C(=O)OC	2%	5%
86	Cn1c(CCNC(=O)C2CC23CCN(C(=O)C2=CCCC2)CC3)nc2ccccc21 (stereo not given)	-14%	-13%
87	CC1CNCCN1S(=O)(=O)c1cccc2cnccc12 (stereo not given)	-6%&5%	-22%&-25%
88	O=S1(=O)CC(N2CCCC2)CN1C1CCCCC1 (stereo not given)	-13%	5%
89	Cc1oc(-c2ccccc2NC(=O)c2ccccn2)nc1CNC(=O)c1ccc(Oc2ccccc2)o1	14%	-15%
90	CCOC(=O)c1ccccc1C(=O)OCC	-24%	17%

The list continues:
No.	structure	LASV entry inh	MARV entry inh
91	CC(=O)Nc1ccc(S(=O)(=O)N2CCc3nc(-c4ccccc4)c4c(c3C2)CO[C@@H](C)C4)cc1	·	38%[activator][8.59 µM]
92	C[C@]12O[C@@H]1[C@@H](O)C(Br)=C(CO)[C@@H]2O	3%[8.59 µM]	52%[activator][8.59 µM]
93	Cc1cccc(-c2nn(C(=S)Nc3ccccc3)cc2-c2ccnc3ccccc23)n1	-5%	1%
94	O=c1cc(CN2CCCCC2)c2c(ccc3ccccc32)o1	10%	15%
95	N#C/C(=C\c1ccc(O)cc1)C(=O)O	1%	2%
96	CCCCC/C=C\C[C@H](O)/C=C/C=C\C/C=C\CCCC(=O)O	11%&-3%	17%&6%
97	Nc1ccc(S(=O)(=O)Nc2ccnn2-c2ccccc2)cc1	-1%[17.8 µM]	-1%[17.8 µM]
98	c1ccc2[nH]ccc2c1	-3%	10%
99	O=S(=O)(CCNCc1ccc(-c2ccc3ncnc(Nc4ccc(OCc5cccc(F)c5)c(Cl)c4)c3c2)o1)c1ccccc1	·	?
100	CN1CCN(c2nc(-c3ccc(N(C)C)cc3)nc3ccccc23)CC1	54%[activator]	?

Reprinted at random: 3 entries already listed
No.	structure	LASV entry inh	MARV entry inh
97	Nc1ccc(S(=O)(=O)Nc2ccnn2-c2ccccc2)cc1	-1%[17.8 µM]	-1%[17.8 µM]
98	c1ccc2[nH]ccc2c1	-3%	10%
96	CCCCC/C=C\C[C@H](O)/C=C/C=C\C/C=C\CCCC(=O)O	11%&-3%	17%&6%
